TRPML1 inh: qHTS for Inhibitors of the Human Mucolipin Transient Receptor Potential 1 (TRPML1); TRPML1-inducible cells, Ca2+ dye fluorescence, FDSS; stronger effect = lower value; inhibition of EC80 agonist-evoked calcium signal; activity change, negative = inhibition, % (test concentration not listed); hit rate 0.02% among 390,000; AID 624415, 2012; in the data active means activity change below about -50%; inconclusive means about -30% to -50%; inactive means above about -30%;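 further: stimulus is agonist 54-4 at its EC80 concentration; on the % scale 0 is the no-effect control and ±100 the full control effect; compound concentration not given in the record; the text of the record puts the active cut at -80%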
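TRPML1-DL cells, Tet-induced overnight (~16 h, 37 °C) at 1,500 cells/well, were loaded with Ca8 no-wash dye plus quencher for 45-90 min at room temperature. Compounds were pinned during FDSS kinetic reading; agonist 54-4 at EC80 (4 uM final) then added.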
D2 ag: Beta-Arrestin HTS for Positive Allosteric Modulators of the Human D2 Dopamine Receptor: Agonists; D(2) dopamine receptor (Homo sapiens), P14416; DiscoveRx PathHunter D2 beta-arrestin, luminescence, 90 min; 100% = 57 uM dopamine signal; activation, % (concentration not given with the values); hit rate 0.084% among 360,000; AID 624465, 2012; in the data active = activation above about 40%; inconclusive = about 15% to 40%; inactive = below about 15%; further: compound concentration not given in the record; the text of the record calls up to 30% inactive
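DiscoveRx PathHunter D2 beta-arrestin cells (2,100/well) attached overnight, then compound-stimulated 90 min at 37 C in HBSS/10 mM HEPES/0.1% Tween-20 buffer; beta-galactosidase complementation read by luminescence after 1 h at ambient temperature. Dopamine 57 uM final (EC100) as control.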
TRPML1 agonist: qHTS for Agonists of the Human Mucolipin Transient Receptor Potential 1 (TRPML1); TRPML1-expressing cells, Ca2+ dye fluorescence, FDSS; host cell line not named in the record; reference of the full effect not given here; activation, % (no concentration beside the values); hit rate 0.12% among 410,000; in the data active = activation above about 50%; inconclusive = about 30% to 50%; inactive = below about 30%; further: 0% is about no effect; the text of the record puts the active cut at 80%
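In this qHTS format, compounds were pin-transferred onto Ca8-dye-loaded TRPML1-DL cells induced with Tet overnight, and intracellular Ca2+ fluorescence was recorded kinetically for 110 s after a 10 s baseline. A subsequent 4uM final 54-4 (EC80) addition followed by a second 110 s read served as the antagonist phase.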
Six1-Eya2 blk: qHTS Assay for Inhibitors of the Six1/Eya2 Interaction | Homeobox protein SIX1 (Homo sapiens) + Protein phosphatase EYA2 (Homo sapiens), … | AlphaScreen GST-Six1/His-Eya2 binding, biochemical; stronger effect = lower value; control for the full effect not named in the record | activity change, % (concentration not given with the values) | hit rate 0.56% among 360,000; in the data active = activity change below about -65%; inconclusive = about -30% to -65%; inactive = above about -30%; further: on the % scale 0 is the no-effect control and ±100 the full control effect
Target sequence (O00167 whole entry, looked up): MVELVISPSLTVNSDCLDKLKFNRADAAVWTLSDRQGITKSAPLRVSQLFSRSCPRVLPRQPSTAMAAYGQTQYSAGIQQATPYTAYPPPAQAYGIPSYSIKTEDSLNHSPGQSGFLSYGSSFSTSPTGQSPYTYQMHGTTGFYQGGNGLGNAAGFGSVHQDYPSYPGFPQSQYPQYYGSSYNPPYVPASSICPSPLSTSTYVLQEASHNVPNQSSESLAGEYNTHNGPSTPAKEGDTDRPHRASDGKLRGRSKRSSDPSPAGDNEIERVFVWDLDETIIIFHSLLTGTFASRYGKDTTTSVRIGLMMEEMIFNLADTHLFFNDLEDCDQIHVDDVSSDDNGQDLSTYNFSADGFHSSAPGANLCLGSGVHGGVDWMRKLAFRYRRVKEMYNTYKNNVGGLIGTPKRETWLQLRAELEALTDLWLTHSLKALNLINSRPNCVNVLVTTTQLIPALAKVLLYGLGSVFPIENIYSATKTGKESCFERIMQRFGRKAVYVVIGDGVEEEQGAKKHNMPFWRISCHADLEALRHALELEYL
Target sequence (Q15475 whole entry, looked up): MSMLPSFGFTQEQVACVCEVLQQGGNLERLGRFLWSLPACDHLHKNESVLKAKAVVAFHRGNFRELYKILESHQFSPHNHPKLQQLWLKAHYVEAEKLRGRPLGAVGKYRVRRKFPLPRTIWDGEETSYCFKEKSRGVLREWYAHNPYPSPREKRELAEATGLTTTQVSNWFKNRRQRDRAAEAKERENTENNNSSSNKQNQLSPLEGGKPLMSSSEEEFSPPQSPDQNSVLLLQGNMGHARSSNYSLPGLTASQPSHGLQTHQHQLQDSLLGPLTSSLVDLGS
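Six1/Eya2 binding was read as AlphaScreen signal after compounds were pinned into GST-Six1 plus His-tagged Eya2 (5X stock 250/500 nM) in pH 8.0 Tris/NaCl/TCEP buffer, beads added, then incubated 1 h, 37 C, dark.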
PINK1 modulator: A Quantitative High throughput Screen to Identify Chemical Modulators of PINK1 Expression; PINK1 immunofluorescence, high-content cytometry, 24 h; Potency, µM (highest dose often 76.6 µM), for the others: at the top dose activation (PINK1 increase), hits mostly activators; hit rate 0.2% among 410,000; active = well fitted activation curve with a large enough effect; inconclusive = small, poorly fitted or top-dose-only effect; inactive = flat fitted curve, though single readings scatter; cell line not stated here;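 further: potency means the concentration at half of the fitted maximal effect; % of control where 0% means no effect; nearly all actives have a fitted effect of over 65% in size; a mitochondrial uncoupler was the plate control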
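PINK1 protein level read as immunofluorescence by microplate cytometer in a fixed, stained stable cell line after 24 h exposure to five compound concentrations, with CCCP as control.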
CtBP-E1A inh: qHTS Assay for Inhibitors of the CtBP/E1A Interaction; hit rate 0.49% among 340,000; CtBP / adenovirus E1A interaction (AlphaScreen); AlphaScreen GST-E1A/His-CtBP binding, 1536-well; stronger effect = lower value; control for the full effect not named in the record; activity change, % (no concentration beside the values); in the data active means activity change below about -65%; inconclusive means about -30% to -65%; inactive means above about -30%; further: on the % scale 0 is the no-effect control and ±100 the full control effect; compound concentration not given in the record
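In 5 uL wells, 23 nL compound meets equimolar GST-E1A and His-CtBP (5X stock 125 nM each) for 2 h, 37 °C. Beads (5X, 50 ug/mL) then 1 h, 37 °C, dark.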
Starred values were filed as active, the others as inactive; ? = inconclusive; . = no result given; & = joins results of further samples; [ ] = remark or other dose.

SMILES	TRPML1 inh	D2 ag	TRPML1 agonist	Six1-Eya2 blk	PINK1 modulator	CtBP-E1A inh
O=C(NCCCCc1ccccc1)c1cccc(NC(=O)C2CCC2)c1	-9	0.6	0.7	8	0.6%	-7
CC1c2nc3ccccc3n2C(CC(=O)NCCCN2CCOCC2)C(=O)N1Cc1ccccc1 (stereo unspecified)	7	-5.0	0.1	2	-1.6%	8
COc1ccccc1CNC(=O)Cn1cnnn1	-11	0.2	0.6	5	-1.7%	1
CNc1nc(C)c(C(C)(C)C)s1	-26	-1.4	0.4	-1	2.8%	.
CCC(c1nnnn1C(C)(C)CC)N(CCCO)Cc1cc2cccc(C)c2[nH]c1=O (stereo unspecified)	-2	-3.1	-0.1	6	-0.7%	4
CCN(CC)C1CCN(C(=O)c2cc(COc3ccccc3SC)on2)C1 (stereo unspecified)	13	-6.7	-0.2	-4	1.1%	-3
CC(C)(C)C(=O)Oc1cc(N)n(S(=O)(=O)c2ccc(F)cc2)n1	-1	-0.6	0.5	-6	3.2%	-12
COc1cc2c3c(c1OC)C1(C=CC(=O)C=C1)CC3N(C(C)=O)CC2 (stereo unspecified)	11	-2.4	-0.4	-6	-2.7%	2
CCOc1ccc2nc(SCC(=O)NCC3CCCO3)c(C#N)cc2c1 (stereo unspecified)	6	-3.4	1.1	1	6.0%	-1
O=C(CNC(=O)OCc1ccccc1)Oc1cc2oc(=O)cc(-c3ccccc3)c2cc1Cl	-7	1.7	0.0	-4	.	-19
CC(=O)Nc1ccc(S(=O)(=O)Nc2nc3ccccc3nc2Nc2ccccc2)cc1	5	-1.5	0.0	6	-1.7%	3
CCN(C(=O)CN1CCN(c2ccccc2)CC1)c1c(N)n(Cc2ccccc2)c(=O)[nH]c1=O	6	-1.5	-0.2	4	-0.3%	10
Cc1c(Cl)ccc2sc(N3CCN(C(=O)CS(=O)(=O)c4ccccc4)CC3)nc12	50	.	0.1	.	2.2%	.
COc1ccc(NC(=O)/C=C/C(=O)O)cc1Cl	4	-2.1	0.4	3	1.9%[38.3 µM]	6
COc1cc(NC(=O)c2csc3c2CCCC3)ncn1	1	-0.1	1.5	2	-4.3%[38.3 µM]	8
O=c1c2ccccc2n(Cc2c(F)cccc2Cl)c(=O)n1CCc1ccccc1	-16	.	-0.8	.	12%	.
CCc1cccc2c(=O)c(C(=O)N3CCCCCC3)c[nH]c12	-5	0.2	-0.3	6	-0.9%	4
CC(CCc1ccco1)NC(=O)CCc1nnc2ccc(NCc3ccccc3)nn12 (stereo unspecified)	1	3.0	-0.5	-3	0.5%	2
CC(Cl)C(=O)c1c[nH]c2ccccc12 (stereo unspecified)	8	-6.7	0.7	4	-1.4%	-7
Cc1ccc(OCC(O)CN2CCN(Cc3ccc4c(c3)OCO4)CC2)c(C)c1 (stereo unspecified)	13&12	-3.0&4.6	0.4&0.9	-6&-11	1.7%	-11&3
CCN(CC)c1nn2c(=O)c(C(=O)NCCc3ccccc3C)cnc2s1	-5	.	0.5	.	0.5%	.
C=CCN1C(=O)C(Cc2cccc(Cl)c2)SC1=Nc1ccc(C(=O)O)cc1 (stereo unspecified)	-16	1.9	0.2	0	2.3%	.
CCOc1ccc(C2CC(=O)N(c3cccc(F)c3)C3=C2C(=O)OC3)cc1 (stereo unspecified)	-2	.	3.4	.	1.5%	.
COc1ccc(-c2oc3ncnc(N)c3c2-c2ccccc2)cc1	3	1.4	0.0	2	3.7%[38.3 µM]	8
CCN(CC)S(=O)(=O)c1ccc(C(=O)NCC2(N3CCOCC3)CCCCC2)cc1	-10	2.4	-0.1	-8	-0.9%	-14

Compound profiles (already shown). Screens in order: TRPML1 inh	D2 ag	TRPML1 agonist	Six1-Eya2 blk	PINK1 modulator	CtBP-E1A inh
CCN(CC)c1nn2c(=O)c(C(=O)NCCc3ccccc3C)cnc2s1 as listed: -5	.	0.5	.	0.5%	.
C=CCN1C(=O)C(Cc2cccc(Cl)c2)SC1=Nc1ccc(C(=O)O)cc1 (stereo unspecified) as listed: -16	1.9	0.2	0	2.3%	.
COc1ccccc1CNC(=O)Cn1cnnn1 as listed: -11	0.2	0.6	5	-1.7%	1

A section from the list above, as a working copy:
SMILES	TRPML1 inh	D2 ag	TRPML1 agonist	Six1-Eya2 blk	PINK1 modulator	CtBP-E1A inh
CC(=O)Nc1ccc(S(=O)(=O)Nc2nc3ccccc3nc2Nc2ccccc2)cc1	5	-1.5	0.0	6	-1.7%	3
CCN(C(=O)CN1CCN(c2ccccc2)CC1)c1c(N)n(Cc2ccccc2)c(=O)[nH]c1=O	6	-1.5	-0.2	4	-0.3%	10
Cc1c(Cl)ccc2sc(N3CCN(C(=O)CS(=O)(=O)c4ccccc4)CC3)nc12	50	.	0.1	.	2.2%	.
COc1ccc(NC(=O)/C=C/C(=O)O)cc1Cl	4	-2.1	0.4	3	1.9%[38.3 µM]	6

(more compounds)
SMILES	TRPML1 inh	D2 ag	TRPML1 agonist	Six1-Eya2 blk	PINK1 modulator	CtBP-E1A inh
COc1cc(OC)c(NC(=O)COCc2cc(-c3cccs3)on2)cc1Cl	12	.	1.3	.	-0.2%	.
COc1cccc(OC)c1C(=O)NCCc1ccccc1	-1	-3.3	1.7	2	0.9%	8
COc1cccc(/C=N/NC(=O)C(=O)N/N=C/c2cccc(OC)c2O)c1O	-19	-3.2	-0.2	?	3.2%	?
O=C(NNS(=O)(=O)c1ccc(F)cc1F)c1csc(-c2cccnc2)n1	6	-6.2	0.6	9	-0.3%	.
Cn1nnnc1SCc1nc2ccccc2[nH]1	-9	-0.1	0.1	11	-1.2%	0
Cc1ccc2c(CC(=O)NC3CCS(=O)(=O)C3)coc2c1C (stereo unspecified)	28	3.2	4.5	3	3.2%	.
O=C(Cc1coc2cc3c(cc12)CCC3)OCC(=O)N1CCCC1=O	16	0.7	1.9	-3	1.7%	11
O=C(CSc1nnc(-c2cccnc2)n1Cc1ccco1)c1ccc(Br)cc1	14	-0.7	1.9	-1	.	-10
O=C(Nc1nc2ccc(F)cc2s1)C1CC(=O)N(c2ccc3c(c2)OCCO3)C1 (stereo unspecified)	-4	6.6	1.2	-12	0.4%	-4
COc1ccc(-n2nc(C(=O)N3CCN(c4ccc(F)cc4)CC3)c3ccccc3c2=O)c(OC)c1	12	-1.4	2.4	-15	-1.4%	-18
CCN(CC)CCNC(=O)Cc1nn(CC)c(=O)c2ccccc12	27	1.8	0.8	2	.	4
COC(=O)C[C@@H]1C[C@@H]2c3cc(NC(=O)Cc4ccncc4)ccc3O[C@@H]2[C@@H](CO)O1	16	3.7	-0.4	6	-1.9%	5
Cc1cc2cc(CNC(=O)C3CC3)ccc2n1C	6	-1.6	-0.7	-1	-1.8%	-5
COc1cc(OC)c(NC(c2nnc(-c3ccccc3)o2)c2ccc(F)cc2Cl)cc1Cl (stereo unspecified)	18	.	1.3	.	0.7%	.
CCN(CC)S(=O)(=O)c1cccc(NC2=NCC(C)S2)c1 (stereo unspecified)	5	-1.4	-0.2	4	2.4%	5
CC(C)C(OC(=O)c1cccs1)C(=O)NCc1cccs1 (stereo unspecified)	5	-1.0	5.5	5	5.5%	-9
COCCNC(=S)N/N=C(\C)c1ccccc1F	-2	0.2	-0.3	-7	-1.9%	-5
Cc1ccc2oc(=O)n(CC(=O)OC(C)C)c2c1	-8	-1.7	-0.7	-4	0.6%	-2
COCCCn1c(=N)c(C(=O)NCc2ccco2)cc2c(=O)n3ccccc3nc21	2	.	-0.7	.	-1.1%	.
O=C(Nc1nc2ccccc2s1)c1ccc(N2CCCCC2)c([N+](=O)[O-])c1	-3	-3.4	0.0	?	5.8%	?
O=C(NCc1ccccc1)NC1(C(=O)N2CCN(c3ccccc3)CC2)CCCCC1	-5	-2.0	0.9	0	-0.6%	0
O=C(NCc1cccc(C(F)(F)F)c1)c1ccc2c(c1)OCO2	-15	-0.8	0.8	4	-0.8%	5
CCCCn1c(=O)c2c(O)cc(=O)oc2c2ccccc21	14	-4.6	-0.3	-1	-0.7%	-10
CCc1cccc(NS(=O)(=O)c2ccc3c(c2)CCC(=O)N3)c1	-1	1.6	-0.1	7	1.7%	3
CCC(=O)N1CCc2cc(S(=O)(=O)CCC(=O)Nc3ccc(OC(F)(F)F)cc3)ccc21	-5	.	0.0	.	1.3%	.

Further compounds follow.
SMILES	TRPML1 inh	D2 ag	TRPML1 agonist	Six1-Eya2 blk	PINK1 modulator	CtBP-E1A inh
CCCCNC(=O)CSc1c2c(nc3ccc(Cl)cc13)CCCC2	3	.	3.3	.	5.4%	.
COc1cccc(-c2nnn(CC(=O)N3CCCCC3)n2)c1	5	8.3	-0.1	1	1.3%	4
COc1ccccc1C(=O)NC(=O)COC(=O)CCNS(=O)(=O)c1ccccc1	-1	-5.4	1.7	5	0.1%	5
CC(=O)N/C(=C\c1ccccc1)C(=O)OCC(=O)NC(=O)c1ccccc1	8	0.6	1.2	6	-2.3%	-12
Nc1cc(Cc2ccccc2)ccc1O	25	?	0.5	-12	0.3%	0
CCS(=O)(=O)N1CCC2(CC1)OC(=O)C(C)=C2C(=O)NCc1ccccc1C	-1	.	-0.2	.	-0.7%	.
CCCC(O)(CCC)C(=O)NN1CCCCC1	-7	-2.1	1.8	2	0.1%[38.3 µM]	10
O=S(=O)(/N=C(\[O-])C[n+]1ccccc1)c1ccc(Cl)cc1	-3	-1.6	-0.7	8	-1.9%	1
Cc1nc2ncccn2c1-c1csc(Nc2ccc(O)cc2)n1	9	?	0.0	-87*	14%	-90*
CCCCNC(=O)O/N=C(\N)CS(=O)(=O)C(C)(C)C	-2	0.6	0.6	9	-0.9%	-24
COC(=O)Nc1nc(C)c(C(=O)N(C)C)s1	12	-1.5	-0.7	1	1.3%	1
Nc1ncnc2c1ncn2[C@@H]1O[C@H](C(=O)NS(=O)(=O)c2cccc(F)c2)[C@@H](O)[C@H]1O	5	-7.0	-0.4	2	2.2%	1
CN(C)S(=O)(=O)c1ccc2c(c1)c(=O)c(C(=O)N1CCN(c3ccccn3)CC1)cn2C	-2	2.6	-0.1	0	0.8%	-1
COc1ccc(C(=O)Oc2ccc(C3NC(=O)c4c(sc5c4CCN(C)C5)N3)cc2OC)cc1 (stereo unspecified)	7	.	6.1	.	0.3%	.
COc1cc(C(=O)NCC(=O)Nc2c(C)cccc2C)ccc1OCC(=O)N1CCOCC1	21	-2.9	0.6	-3	-1.5%	0
CC1(C)COC(c2ccc3c(c2)OCO3)OC1	-2	-1.2	-0.1	11	-1.8%	7
O=C(NCCc1csc(-c2ccc(C(F)(F)F)cc2)n1)C(=O)Nc1ccc(F)c(Cl)c1	7	.	3.7	.	0.2%	.
Cc1cccc(/C=N/NC(=O)c2cccc([N+](=O)[O-])c2)n1	-7	0.9	-0.3	?	1.9%	-22
Cc1c(NC(=O)COC(=O)C2(c3ccccc3F)CCCC2)c(=O)n(-c2ccccc2)n1C	7	-1.1	-0.2	8	0.2%	-14

High-throughput results (PubChem BioAssay)
